CBX7 AlphaScr = inhibitors of human CBX7 binding to H3K27me3 peptide. O95931. AlphaScreen His6-CBX7 / biotin-H3K27me3 peptide binding; stronger effect = lower value. normalised signal (fraction of DMSO) (concentration not given with the values). 66,000 compounds, 1.1% hits. AID 1224903; in the data active = normalised signal below about 0.5;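 also: 100 nL library stock added to about 20 µL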
Target sequence (O95931 whole entry, looked up): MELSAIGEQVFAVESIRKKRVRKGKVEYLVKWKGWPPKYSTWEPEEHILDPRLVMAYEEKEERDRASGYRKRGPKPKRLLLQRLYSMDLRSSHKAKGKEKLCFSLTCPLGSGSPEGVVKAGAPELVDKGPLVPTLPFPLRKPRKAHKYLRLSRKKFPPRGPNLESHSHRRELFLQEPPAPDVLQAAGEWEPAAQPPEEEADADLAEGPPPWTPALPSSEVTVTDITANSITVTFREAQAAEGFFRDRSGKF
CBX7 AlphaScr z-score = recorded beside CBX7 AlphaScr, whose call it bears; z-score; measured here: z-score of CBX7 signal; some inactives read as strong as hits; reference of the scale not given here;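 same signal on another scale; lower means less binding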
Active calls of the source: *. A portion of the library (hit frequency here may not be typical).

SMILES	CBX7 AlphaScr	CBX7 AlphaScr z-score
COc1ccc(NS(=O)(=O)c2ccc3[nH]c(=O)c(=O)[nH]c3c2)cc1OC	0.993	-0.166
CCOc1ccc2c(c1)c(=O)c(S(=O)(=O)c1ccccc1)cn2Cc1ccc(OC)cc1	0.984	-0.431
O=c1c(S(=O)(=O)c2ccccc2)cn(Cc2ccccc2)c2ccc(F)cc12	0.9	-1.92
CCOC(=O)c1ccc(NC2c3ccccc3C(=O)N2c2ccccc2C)cc1 (stereo not drawn)	1.04	1.46
O=C(Nc1nc(-c2ccc(F)cc2F)cs1)c1cccc(F)c1F	1.03	0.663
COc1ccc(C2(CNC(=O)C(=O)NC(C)CCc3ccccc3)CCCC2)cc1OC (stereo not drawn)	0.871	-1.24
CC1CCN(C(=O)CSc2nnc(Cc3cc(=O)[nH]c(=O)[nH]3)n2-c2ccc(F)cc2)CC1	1.12	0.254
CCCCNc1nc(SCC(=O)NC(C)CC)nc2ccccc12 (stereo not drawn)	1.03	1.69
COc1ccc(NC2CC(=O)N(c3ccc(C(=O)O)cc3)C2=O)cc1 (stereo not drawn)	0.816	-2.9
O=C(CS(=O)(=O)c1nc(-c2ccc3c(c2)OCO3)cn1-c1ccccc1)Nc1ccc(Cl)cc1	0.885	-2.57
CCOC(=O)c1cc(-c2ccc(OC)cc2)n(CCC(=O)NC2CCN(Cc3ccccc3)CC2)c1C	0.859	-3.33
COCCNC(=O)c1cn(-c2ccc(Cl)cc2)c(=O)c2ccccc12	0.983	-0.552
c1ccc2[nH]c(CN3CCN(c4ncnc5sc6c(c45)CCCC6)CC3)nc2c1	0.993	-0.157
CCN(CC)c1ccc(C(=O)N2CCNc3ccccc3C2)cc1	1.03	0.735
COc1cc(OC)c(Nc2nc(-c3ccc(OC)c(OC)c3)nc3ccccc23)cc1Cl	1.03	1.25
COc1ccc(CNC(=O)C2CC(=O)N(C3CCCCCC3)C2)cc1 (stereo not drawn)	1.01	0.0829
Cc1cccc(C)c1NC(=O)C1(N(C)C(=O)Cc2nc(N)n[nH]2)CCCCC1	0.865	-2.45
Cc1ccc(C(=O)c2oc3ccccc3c2NC(=O)c2ccccc2Cl)cc1	1.19	0.852
COc1cccc(-c2cc(C(=O)N3CCN(c4ccccc4OC)CC3)no2)c1	1.02	0.226
O=C(Nc1nnc(Cc2c[nH]c3ccccc23)s1)c1ccc(F)cc1	1.04	0.434
CCCCn1c(C(C)NC(=O)COC)nc2ccccc21 (stereo not drawn)	0.834	-1.91
O=C(CN1C(=O)CC(c2ccccc2)Sc2ccccc21)Nc1ccc(Br)cc1 (stereo not drawn)	1.1	1.75
CN1C(=O)C(O)(CC(=O)c2cccnc2)c2ccccc21 (stereo not drawn)	1.09	0.882
c1cc(NCc2cccs2)cc(-c2nc3ccccc3o2)c1	0.986	-0.227

The last 3 entries of the section before are carried over, then new ones follow.
SMILES	CBX7 AlphaScr	CBX7 AlphaScr z-score
O=C(CN1C(=O)CC(c2ccccc2)Sc2ccccc21)Nc1ccc(Br)cc1 (stereo not drawn)	1.1	1.75
CN1C(=O)C(O)(CC(=O)c2cccnc2)c2ccccc21 (stereo not drawn)	1.09	0.882
c1cc(NCc2cccs2)cc(-c2nc3ccccc3o2)c1	0.986	-0.227
Cc1nc(SCC(=O)c2ccc(F)cc2)c2cc(-c3ccccc3)sc2n1	1.03	0.034
O=C(COc1ccccc1)Nc1ccc2c(c1)nc1n2CCN(Cc2ccccc2)C1	1	-0.0187
Cc1ccc(-n2ncc3c(NCc4cccs4)ncnc32)c(C)c1	0.982	-0.507
CCOC(=O)c1cnn(-c2ccc(F)cc2)c1C1CCN(C(=O)OC(C)(C)C)CC1	0.863	-3.71
O=C(Cc1ccccc1)Nc1c(C(=O)N2CCCCCC2)cnn1-c1ccccc1	1.04	0.267
O=C(CNc1ccccc1-c1nc2ccccc2[nH]c1=O)NCc1ccc2c(c1)OCO2	1.08	3.24
Cc1ccc(S(=O)(=O)Nc2nc3ccccc3nc2Nc2ccc(C)cc2C)cc1	1.02	0.345
COc1ccc2nc(SCC(=O)Nc3ccc(C#N)cc3)[nH]c2c1	0.909	-1.44
COc1ccc(CN2CCN(Cc3ccc(C(F)(F)F)cc3)CC2)cc1OC	0.931	-1.19
COc1cccc(N2C(=O)N(c3ccc(Cl)c(Cl)c3)C3CS(=O)(=O)CC32)c1 (stereo not drawn)	1.1	1.19
CN(C(=O)c1nn2c(c1Cl)NC(c1cccs1)CC2C(F)(F)F)C1CCCCC1 (stereo not drawn)	1	0.0278
O=C(Nc1ccc(-c2nc3ccccc3o2)c(O)c1)c1ncn[nH]1	0.308*	-19.7*

Filtered by structure: the compounds so far with a CF3 group.
SMILES	CBX7 AlphaScr	CBX7 AlphaScr z-score
COc1ccc(CN2CCN(Cc3ccc(C(F)(F)F)cc3)CC2)cc1OC	0.931	-1.19
CN(C(=O)c1nn2c(c1Cl)NC(c1cccs1)CC2C(F)(F)F)C1CCCCC1 (stereo not drawn)	1	0.0278

Continued:
SMILES	CBX7 AlphaScr	CBX7 AlphaScr z-score
COc1ccc(-c2cc(C(=O)NCc3cccnc3)c3cc(C(C)C)ccc3n2)cc1	0.956	-0.0495
O=C(Nc1nnc(COc2ccc(Cl)cc2)s1)c1ccccc1	1.07	0.296
CCCCn1c(CCCNC(=O)c2ccccc2)nc2ccccc21	1.2	2.04
COc1ccccc1CNC(=O)c1ccc2nc(N3CCOCC3)sc2c1	1.04	1.79
Cc1cccc(CCNC(=O)C2CCN(S(=O)(=O)c3cccc4cccnc34)CC2)c1	1.33	1.41
Cc1ccc2c(c1)c(C)c(C)n2CC(O)CN1CCN(CCO)CC1 (stereo not drawn)	0.945	-1.78
Cc1cccc(Cc2c(C)nc3nc(SCC(=O)NCc4ccccc4Cl)nn3c2C)c1	1.12	1.12
COc1ccc(-c2nc3cc(C)ccc3o2)cc1NC(=O)c1cccc(Br)c1	0.992	-0.302
COCCN1Cc2cccc(C(=O)Nc3ccccc3OC)c2C1=O	1.1	3.97
CC(=O)N1c2ccc(S(=O)(=O)N3CCN(c4cc(C)ccc4C)CC3)cc2CC1C (stereo not drawn)	0.942	-1.75
Cc1cc(N2CCCCC2)nc2ccc(NC(=O)C3COc4ccccc4O3)cc12 (stereo not drawn)	1.01	0.362
COc1ccc(NC(=O)C2CC(=O)N(c3ccc(OC(C)C)cc3)C2)cc1 (stereo not drawn)	0.952	-1.44

Structures from the list above that contain bromine:
SMILES	CBX7 AlphaScr	CBX7 AlphaScr z-score
O=C(CN1C(=O)CC(c2ccccc2)Sc2ccccc21)Nc1ccc(Br)cc1 (stereo not drawn)	1.1	1.75
COc1ccc(-c2nc3cc(C)ccc3o2)cc1NC(=O)c1cccc(Br)c1	0.992	-0.302

(next part)
SMILES	CBX7 AlphaScr	CBX7 AlphaScr z-score
COc1cc(C2Nc3ccccc3C(=O)N2c2ccccc2)ccc1O (stereo not drawn)	1.01	0.106
O=S(=O)(NCCc1ccc(Cl)cc1)c1cnc[nH]1	1.1	1.49
Fc1ccc(-c2csc3ncnc(N4CCN(c5ccccn5)CC4)c23)cc1	1.03	1.21
COc1ccc(CCNC(=O)CCc2c(C)nc3cc(-c4ccccc4)nn3c2C)c(OC)c1	1.04	0.436
CCOC(=O)c1cnc2ccccc2c1Nc1ccc(I)cc1	1.23	5.18
CN(C)C1CCCCC1NS(=O)(=O)c1ccc(Cl)cc1 (stereo not drawn)	1.07	1.95
CCc1ccc(-n2nc(C)c(-c3ccc(Cl)c(Cl)c3)c2C)cc1	0.882	-1.33
Cc1cccc(-n2c(-c3ccccc3F)nc3c(cnn3-c3ccccc3)c2=O)c1	0.486*	-20.4*
CN1CCN(C(=O)c2ccc3c(c2)N(Cc2ccc(F)cc2)C(=O)c2ccccc2S3(=O)=O)CC1	0.919	-0.88
FC(F)(F)c1cccc(-n2nc(-c3ccc(Cl)cc3)cc2-c2ccc(Cl)cc2)c1	1.13	1.93
CC(C)Cc1cc(C(=O)Nc2cccc(C(F)(F)F)c2)no1	1.17	5.65
Cc1ccc(N2CCN(c3nc4ccccc4nc3C(F)(F)F)CC2C)cc1 (stereo not drawn)	1.04	1.34
Fc1ccc(CN2CCC(N3CCc4ccccc4C3)CC2)cc1	1.04	1.18
Cc1cc(N2CCCC2)n2nc(C)c(-c3ccccc3)c2n1	1.01	0.48
COc1cccc(-n2c(Cc3cc(=O)[nH]c(=O)[nH]3)nnc2SCc2ccccc2Cl)c1	0.844	-2.39
Cc1ccc2[nH]c3c(c2c1)CCCC3NCCO (stereo not drawn)	1.15	2.97
COc1ccc(-c2c(C)nn3c(N4CCN(C)CC4)cc(C)nc23)cc1OC	1.01	0.167
N#Cc1c(NC(=O)c2cccc(Cl)c2)sc2c1CCCC2	1.03	0.311
COc1ccc(Br)cc1CNC(=O)CCc1nc(-c2cccs2)no1	1.07	2.74
CCOc1ccc(CCNC(=O)CCCc2cn(C)c3ccccc23)cc1OCC	1.01	0.116
O=C(Nc1c(-c2ccc(F)cc2)nc2ccccn12)c1ccc(F)cc1	1.29	2.84
CCC(C)NC(=O)CCN1C(=O)C(C)Oc2ccc(C)cc21 (stereo not drawn)	1.1	1.74
O=C(CSc1nnc(-c2ccc(Cl)cc2)o1)N1CCCCC1	1	0.00486
COCCCNC(=O)c1cc(Nc2ccc(C(C)C)cc2)nc2ccccc12	1.12	0.119
Cc1ccccc1OCc1nc(C#N)c(N2CCCC2)o1	0.732	-11.7
COc1ccc(Br)cc1CN1C(=O)c2ccccc2C1C(=O)NC1CCCCCCC1 (stereo not drawn)	1.13	1.05
CCOc1ccccc1NC(=O)c1c(NCc2cccs2)sc2c1CCCCC2	0.899	-5.22
CCOc1ccc(-n2ccnc2SCC(=O)Nc2ccc(Cl)cc2)cc1	0.792	-0.275
CCCCN(CCCC)S(=O)(=O)c1ccc2c(c1)CCN2C(=O)CCC(=O)O	0.849	-2.48
CCOc1ccccc1CNC(=O)C1CCCN(c2nn3c(=O)cc(C)nc3s2)C1 (stereo not drawn)	0.631	-2.81
O=C(NCCN1CCOCC1)c1cc(-c2cccc(Br)c2)nc2ccccc12	0.971	-0.859
COc1cccc(-c2nc(CS(=O)(=O)CC(=O)Nc3cc(C)cc(C)c3)c(C)o2)c1	1.04	0.204
Cc1cc(N2CCC(C(=O)N3CCCCCC3)CC2)n2nc(C)c(-c3ccc(Cl)cc3)c2n1	1.09	0.221
C#CC(CCN1CCCCC1)(OC)c1ccccc1 (stereo not drawn)	0.999	-0.00448
Cc1noc(C)c1S(=O)(=O)N(C)CC(=O)Nc1ccc(F)cc1	1	0.11
Cc1ccc2nc(-c3ccsc3)c(Nc3ccccc3)n2c1	1.04	0.975

As entered above.
C#CC(CCN1CCCCC1)(OC)c1ccccc1 (stereo not drawn) in CBX7 AlphaScr z-score shows -0.00448
O=C(NCCN1CCOCC1)c1cc(-c2cccc(Br)c2)nc2ccccc12 in CBX7 AlphaScr z-score shows -0.859
CCOc1ccc(-n2ccnc2SCC(=O)Nc2ccc(Cl)cc2)cc1 in CBX7 AlphaScr z-score shows -0.275
Cc1ccc2nc(-c3ccsc3)c(Nc3ccccc3)n2c1 in CBX7 AlphaScr shows 1.04
Cc1noc(C)c1S(=O)(=O)N(C)CC(=O)Nc1ccc(F)cc1 in CBX7 AlphaScr z-score shows 0.11
Cc1cc(N2CCC(C(=O)N3CCCCCC3)CC2)n2nc(C)c(-c3ccc(Cl)cc3)c2n1 in CBX7 AlphaScr z-score shows 0.221
COc1ccc(Br)cc1CN1C(=O)c2ccccc2C1C(=O)NC1CCCCCCC1 (stereo not drawn) in CBX7 AlphaScr shows 1.13

The list goes on.
SMILES	CBX7 AlphaScr	CBX7 AlphaScr z-score
CCc1ccc(NC(=O)C2CCN(C(=O)c3cnn(-c4ccccc4)c3-n3cccc3)CC2)cc1	0.888	-0.257
Cc1c(C(=O)Nc2ccc(Oc3ccccc3)cc2)oc2ccc(S(=O)(=O)N3CCCCC3)cc12	0.961	-0.535
Cc1cccc(NC(=O)CSc2nnc(CNC(=O)c3c(F)cccc3Cl)o2)c1C	0.917	-1.36
COc1ccc(NC(=O)NCCN2CCc3ccccc3C2)cc1	0.952	-0.0633
O=C(Nc1nnc(/C=C/c2ccccc2)s1)c1ccc(Br)cc1	1.17	2.11
NC(=O)C1(N2CCCCC2)CCN(C(=O)c2ccc(C#CC3(O)CCCCC3)cc2)CC1	0.928	-0.165
CCOc1ccc(CN2C(=O)c3ccccc3Sc3ccc(C(=O)O)cc32)cc1	1.07	0.813
Cc1ccc(NC(=O)C2CCCN(S(=O)(=O)c3cccc4cccnc34)C2)cc1F (stereo not drawn)	1.02	0.516

Source: PubChem BioAssay
